PKD1 inh: blocks activity of human protein kinase D1. Q15139. PKD1 kinase fluorescence polarization assay. inhibition, %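 (about 10 µM by stock and volumes)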. 200,000 compounds, 0.056% hits;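 active = inhibition of 50% or more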;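 note: controls were vehicle for no effect and a reference inhibitor for full effect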
Target sequence (Q15139 whole entry, looked up): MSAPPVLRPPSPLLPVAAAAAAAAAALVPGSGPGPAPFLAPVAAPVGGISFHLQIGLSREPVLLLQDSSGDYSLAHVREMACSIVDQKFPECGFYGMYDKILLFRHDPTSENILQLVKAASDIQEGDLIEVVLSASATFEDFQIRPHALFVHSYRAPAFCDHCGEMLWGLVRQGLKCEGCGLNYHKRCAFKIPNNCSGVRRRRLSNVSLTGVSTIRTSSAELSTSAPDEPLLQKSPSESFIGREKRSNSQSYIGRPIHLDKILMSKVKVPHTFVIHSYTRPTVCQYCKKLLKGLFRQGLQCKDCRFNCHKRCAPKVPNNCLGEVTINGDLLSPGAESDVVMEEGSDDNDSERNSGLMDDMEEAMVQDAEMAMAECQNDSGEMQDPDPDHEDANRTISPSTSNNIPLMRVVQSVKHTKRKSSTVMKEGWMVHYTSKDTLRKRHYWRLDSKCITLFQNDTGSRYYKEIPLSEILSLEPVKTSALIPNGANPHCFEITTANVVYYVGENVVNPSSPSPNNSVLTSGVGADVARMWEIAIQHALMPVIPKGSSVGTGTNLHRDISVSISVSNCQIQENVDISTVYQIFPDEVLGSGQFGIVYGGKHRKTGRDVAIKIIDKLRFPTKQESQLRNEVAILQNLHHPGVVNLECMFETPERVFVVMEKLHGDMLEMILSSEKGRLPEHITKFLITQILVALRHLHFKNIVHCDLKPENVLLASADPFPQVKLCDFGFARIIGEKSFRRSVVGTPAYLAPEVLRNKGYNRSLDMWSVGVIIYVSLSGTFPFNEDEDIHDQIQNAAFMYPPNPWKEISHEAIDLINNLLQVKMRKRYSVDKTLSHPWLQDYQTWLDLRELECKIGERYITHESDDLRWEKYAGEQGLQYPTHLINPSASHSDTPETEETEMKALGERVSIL
HSV replic up: increases HSV replication in cells; HSV replication augmentation in cells, fold increase; maximum fold increase; 220,000 compounds, 0.005% hits; AID 1956;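 active = peak rise of 1.5-fold or more in the series; inconclusive = self-fluorescent or not available for retest; tested in PC3 cells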;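 note: first round at 10 µM; read as green reporter fluorescence; hits show the peak of a series up to 25 µM; 1 = signal of infected wells without compound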
INS promoter inh: TRM-6 insulin promoter activity inhibition | 130,000 compounds, 0.9% hits | inhibition, % at 2 µM | TRM-6 cells (human fetal islet line), insulin promoter-eGFP reporter, imaging; reporter expression induced with tamoxifen | AID 1273;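 active = inhibition above the mean plus 3 SD, with well images judged a real hit on visual review, cut at about 60% in these data, passing the limit was not always enough; inconclusive = inhibition over the cutoff but images rejected on review; inactive = inhibition not above the cutoff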
RGS16-Gao: regulators of human RGS16-Galphao interaction; bead-based flow cytometry RGS16-Galphao binding, fluorescence; actives lie on both sides; binding response (% of control), % at 10 µM; O15492+P09471; AID 1441; 220,000 compounds, 0.38% hits;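 active = below 25% or above 175%, edge rows of some plates excepted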;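 note: Galphao activated by GDP with aluminum fluoride before binding; 100% = wells without compound and 0% = beads without RGS; some results beyond the cut were filed as inactive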
GALR2 agonist: agonists of human galanin receptor 2 (GALR2); O43603; GALR2-expressing cells, agonist activation read-out; activation, %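 (tested at 5 µM)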; 140,000 compounds, 0.48% hits;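 active = above mean plus 3 SD of all compounds, about 5% in these data, not always enough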;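 note: 0% = vehicle buffer wells and 100% = reference agonist at full effect; tested in CHO reporter cells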
INS promoter inh cell count: further read-out of INS promoter inh, marked with its call; normalized cell count, %; measured here: cell count, toxicity; reference of the scale not given here;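 cells exposed to compound for 48 h; stained nuclei by imaging scaled within each plate; lower means fewer cells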
HSV replic up primary fold: also measured in HSV replic up; calls as there; fold increase; compound at 10 µM; measured here: primary screen fold increase 10 uM; tested in PC3 cells;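 GFP signal in the first replicate; 1 = infected wells without compound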
Active calls of the source: *; i = inactive; ? = inconclusive; nt = not tested or not shown.

SMILES	PKD1 inh	HSV replic up	HSV replic up primary fold	INS promoter inh	INS promoter inh cell count	RGS16-Gao	GALR2 agonist
CCc1c(C)nc2ncnn2c1N1CCCC(C(=O)NCc2ccco2)C1 (stereo unspecified)	13	i	1.2	33	130	95	0.1
COc1ccc(/C=N/NC(=O)c2ccccc2Cl)cc1CSc1nc2ccccc2s1	-6	i	0.47	-18	85	98	-0.7
CCOC(=O)C1C(c2cc(OC)c(OC)c(OC)c2)NC(=S)NC1(O)C(F)(F)F (stereo unspecified)	-4	i	1	nt	nt	144	-2.5
CC(C)(C)C(=O)O/N=C1\CCS(=O)(=O)c2sccc21	-1	i	0.94	8	68	95	nt
Cc1[nH]nc(-c2ccc(OCc3cnn(-c4ccccc4)c3)cc2O)c1Oc1ccc(F)cc1	-11	i	0.99	31	86	108	0.9
Cc1cc(C)cc(N(CCC(=O)Nc2nnc(C3CC3)s2)S(=O)(=O)c2ccc(Cl)cc2)c1	12	i	0.77	-39	174	104	1.3
Nc1ccccc1NC1=CC(=O)CC(c2ccco2)C1 (stereo unspecified)	-4	i	1.1	43	93	110	-1.6
CCOc1c2ccc(C(=O)N[C@H](C)C3CCCCC3)cc2nn1CC	5	i	0.94	nt	nt	95	-2.9
Nc1c(Cl)cc(Cl)cc1C(=O)OCC(=O)N1CCOCC1	0	i	0.87	-27	134	103	nt
CSc1nccc(-c2nn(-c3ccc(C)cc3)ccc2=O)n1	-5	i	0.64	8	75	98	0.2
CC1CC(Nc2ccccc2N)=CC(=O)O1 (stereo unspecified)	-11	i	1	-13	81	99	-3.0
CCOc1ccccc1C1C(C#N)=C(N)Oc2cc(C)n(Cc3ccccn3)c(=O)c21 (stereo unspecified)	-10	i	0.98	12	107	103	-1.5
COC(=O)c1ccc(N2C(=O)CC(Sc3n[nH]c(C)n3)C2=O)cc1 (stereo unspecified)	-5	i	0.88	16	130	97	-5.4
O=C(Cn1c(=O)sc2ccccc21)Nc1nc2c(s1)CCCC2	-1	i	0.85	7	116	102	-2.4
CCCCN(C(=O)c1cc2ccccc2o1)c1c(N)n(CC(C)C)c(=O)[nH]c1=O	0	i	1.1	-64	59	84	-2.5
O=C(NC(=O)N1CCN(c2ccc([N+](=O)[O-])cn2)CC1)c1ccccc1F	nt	i	1.1	nt	nt	95	nt
CCN(CC)S(=O)(=O)c1ccc(N2CCOCC2)c(NS(=O)(=O)c2ccc(C)c(C)c2)c1	-4	i	1.1	nt	nt	106	0.1
CC(O)CNCCOc1ccccc1-c1ccccc1 (stereo unspecified)	1	i	0.98	nt	nt	95	nt
O=C1c2ccccc2C(=O)N1CCCCN(C(=O)c1ccc(Cl)s1)c1ccc(Cl)cc1	-4	i	1	-107	77	104	0.3
CCC(CC)NC(=O)Nc1cccc(C)c1C	9	i	1.1	16	114	98	nt
COc1ccc2oc(=Nc3ccc(C(=O)O)cc3)c(C(=O)NCc3ccco3)cc2c1	-6	i	0.96	nt	nt	102	nt
COc1ccc(Nc2nc(NCc3ccco3)nc(N3CCOCC3)n2)cc1	nt	i	0.78	nt	nt	109	nt
NS(=O)(=O)c1ccc(NNC(=O)c2ccccc2)cc1	nt	i	0.91	nt	nt	99	nt
COc1ccccc1N1CCN(CC(=O)N2CCCC2)CC1	-8	i	0.97	8	89	106	nt
COc1ccc(CCN(C)Cc2ccc(OC)c(OCc3ccccc3)c2)cc1OC	4	i	1.1	nt	nt	106	-2.3

The list continues.
SMILES	PKD1 inh	HSV replic up	HSV replic up primary fold	INS promoter inh	INS promoter inh cell count	RGS16-Gao	GALR2 agonist
Cc1ccc(NC(=S)NNC(=O)c2c(Cl)c(C)nn2C)cc1	-9	i	0.98	-7	155	98	-1.5
CC(C)OCCCNc1nc2c(c(=O)n(Cc3ccccc3F)c(=O)n2C)n1C	-3	i	0.79	-53	62	113	-1.2
Cc1ccc2cccc(NC3OC(=O)c4ccccc43)c2n1 (stereo unspecified)	-9	i	0.66	nt	nt	145	-2.5
Cc1ccc(NC(=O)CC(C)N2CCCC2)cc1 (stereo unspecified)	-10	i	1	-43	189	107	-2.0
COc1cc2nc(CN(C)Cc3ccc(F)cc3)[nH]c(=O)c2cc1OC	-4	i	0.72	-18	64	99	nt
Cc1cc(C(=O)COC(=O)C2=COCCO2)c(C)n1-c1ccc2c(c1)OCO2	0	i	0.89	nt	nt	98	-1.2
S=c1[nH]nc(-c2ccco2)n1/N=C/c1ccccc1Cl	9	i	0.95	nt	nt	98	-0.3
COc1cccc(C(=O)Nc2cc(C)on2)c1OC	-4	i	0.98	8	115	103	nt
Cn1cnnc1SCCCN1C(=O)c2cccc3cccc(c23)C1=O	-3	i	0.84	nt	nt	100	nt
Cc1oc(-c2ccccc2F)nc1CS(=O)CC(=O)NCc1ccc2c(c1)OCO2 (stereo unspecified)	17	i	0.89	nt	nt	106	-2.1
Cc1ccc(-n2nnc3c(=O)n(CC(=O)NCc4ccccc4)cnc32)cc1	1	i	0.95	32	86	104	nt
Cc1ccsc1/C=N/NC(=O)Cn1cnc2ccccc21	-5	i	0.84	43	116	105	-0.7
O=C(O)/C=C/C(=O)NC1CCCCCCCCCCC1	nt	i	0.94	nt	nt	95	nt
CCCC(C)C(=O)Nc1ccc(S(=O)(=O)Nc2nccs2)cc1 (stereo unspecified)	-4	i	0.91	-26	177	102	nt
Cc1cccc(NC(=S)N(CCN(C)C)C(C)c2ccco2)c1 (stereo unspecified)	-12	i	0.92	-14	81	102	-1.4
Cc1cc(N2CCOCC2)ccc1/C=C1/SC(=O)NC1=O	0	i	0.97	43	135	101	nt
O=C(O)c1cn(Cc2ccccn2)c(=O)c2ccccc12	-2	i	0.91	nt	nt	92	nt
O=C(CN1CCCC1)Nc1ccc(F)cc1	0	i	0.93	38	51	105	nt
C=CCN1C(=O)C(C)(C)N(C(C)=O)c2ccccc21	-7	i	0.91	11	135	108	-1.3
Cc1ccc(-c2cc(C(=O)NC3=NCCS3)c3ccccc3n2)cc1C	9	i	1	-45	103	109	-1.2
Cc1nn(-c2cccc(C(=O)O)c2)c(C)c1Oc1ccccc1O	-14	i	0.86	nt	nt	104	-1.8
C(=N\Nc1ccc2nncn2n1)/c1ccco1	nt	i	0.95	nt	nt	95	nt
O=C(CCN1CCN(c2ccccc2)CC1)NNC(=S)Nc1ccccc1	-5	i	0.93	nt	nt	108	nt
O=C1C(C=NCCCN2CCOCC2)=C(O)c2ccccc21	-6	i	0.97	16	45	138	-1.0
O=C(CSc1nnc(SCc2ccc(Cl)cc2)s1)N1CCN(C(=O)c2ccco2)CC1	-12	i	1.1	nt	nt	96	-1.0

New compounds follow:
SMILES	PKD1 inh	HSV replic up	HSV replic up primary fold	INS promoter inh	INS promoter inh cell count	RGS16-Gao	GALR2 agonist
CC1C(O)=C(c2nc3ccccc3[nH]2)C(=N)N1c1ccccc1 (stereo unspecified)	-13	i	0.75	14	80	98	-0.9
CCN(CC)CCNC(=O)c1cccc(NC(=O)C(=O)c2ccccc2NC(C)=O)c1	-5	i	0.98	-11	90	110	nt
CC(C)NC(=O)/C(C#N)=C/c1cccc(NC(=O)c2ccccc2Cl)c1	9	i	0.52	48	55	100	-0.6
Cc1cc(C(=O)OCC(=O)N(C)C2CCS(=O)(=O)C2)c(C)n1-c1ccccc1 (stereo unspecified)	11	i	0.84	nt	nt	71	0.1
Cn1c(NC(=O)c2cc(-c3ccc4c(c3)OCO4)nc3ccccc23)cc(=O)n(C)c1=O	-5	nt	nt	42	116	102	-4.4
COc1ccc(-n2cc(C#N)c(=O)[nH]c2=O)cc1	-2	i	1.3	nt	nt	101	nt
O=C(CSc1nc(O)c(C2CCCCC2)c(=O)[nH]1)Nc1ccc(Cl)cc1	-11	i	0.98	nt	nt	103	-0.8
O=C(Nc1ccc2c(c1)OCCO2)C1CCCN(S(=O)(=O)c2cccnc2)C1 (stereo unspecified)	-4	i	0.97	nt	nt	103	-2.7
COc1ccc(O)c(-c2cn[nH]c2-c2cccs2)c1	-3	i	0.98	47	154	100	-1.0
COc1cccc(Cn2cnc3c([N+](=O)[O-])c(C)c(C)cc32)c1	3	i	0.92	nt	nt	102	nt
Cc1cc(C)nc(SCC(=O)N2CCOCC2)n1	0	i	0.88	45	94	104	-0.9
C/C(=N/NC(=O)c1sc(=S)n(C)c1C)c1ccccc1	8	i	1.1	nt	nt	99	-0.9
COc1ccc2nc(SCC(=O)c3ccco3)[nH]c2c1	-2	i	0.93	9	191	107	0.1
Cc1ccn2c(Nc3ccc4c(c3)OCO4)c(-c3ccccn3)nc2c1	-6	?	nt	-7	92	101	-2.0
Cn1c(=O)cc(OCCCC(=O)NCCC2=CCCCC2)c2ccccc21	-1	i	0.96	-20	114	103	nt
COc1cccc(-c2cc(C(=O)N3CCN(C(c4ccccc4)c4ccccc4)CC3)no2)c1	-1	i	0.96	nt	nt	95	-2.9
CC1=C(C(=O)Nc2ccccn2)C(c2ccc3c(c2)OCO3)C2=C(CC(C)(C)CC2=O)N1 (stereo unspecified)	-9	i	0.69	-40	92	88	nt
COc1ccc(C(=O)C(Cc2cc(C(C)=O)ccc2OC)N2CCCC2)cc1 (stereo unspecified)	1	i	0.81	nt	nt	100	nt
COc1ccc(-c2csc(NC(=O)c3ccccc3NS(=O)(=O)c3ccc(C)cc3)n2)cc1	-5	nt	nt	nt	nt	89	0.6
CCOC(=O)c1ccc(NC(=O)Nc2ccon2)cc1	nt	i	0.69	nt	nt	106	nt
CCOC(=O)CSC1=C(C#N)C(c2ccc(Cl)cc2)CC(=O)N1 (stereo unspecified)	-6	i	0.89	nt	nt	95	-0.9
COCC(C)NC(=O)c1cc(-c2ccccc2OC)on1 (stereo unspecified)	-4	i	1	nt	nt	101	0.2
O=C(CN1CCCCCCC1)N/N=C/c1ccccc1F	-7	i	1	18	102	108	-2.0
O=C(O)C1CC=CCC1C(=O)NCc1ccc2c(c1)OCO2 (stereo unspecified)	1	i	0.87	56	94	104	-0.3
COc1ccccc1C(c1nnnn1CCc1ccccc1)N1CCCCCC1 (stereo unspecified)	2	i	0.97	-7	120	93	-1.4

Compounds listed so far containing a furan ring, fused or not, in the order listed:
SMILES	PKD1 inh	HSV replic up	HSV replic up primary fold	INS promoter inh	INS promoter inh cell count	RGS16-Gao	GALR2 agonist
CCc1c(C)nc2ncnn2c1N1CCCC(C(=O)NCc2ccco2)C1 (stereo unspecified)	13	i	1.2	33	130	95	0.1
Nc1ccccc1NC1=CC(=O)CC(c2ccco2)C1 (stereo unspecified)	-4	i	1.1	43	93	110	-1.6
CCCCN(C(=O)c1cc2ccccc2o1)c1c(N)n(CC(C)C)c(=O)[nH]c1=O	0	i	1.1	-64	59	84	-2.5
COc1ccc2oc(=Nc3ccc(C(=O)O)cc3)c(C(=O)NCc3ccco3)cc2c1	-6	i	0.96	nt	nt	102	nt
COc1ccc(Nc2nc(NCc3ccco3)nc(N3CCOCC3)n2)cc1	nt	i	0.78	nt	nt	109	nt
S=c1[nH]nc(-c2ccco2)n1/N=C/c1ccccc1Cl	9	i	0.95	nt	nt	98	-0.3
Cc1cccc(NC(=S)N(CCN(C)C)C(C)c2ccco2)c1 (stereo unspecified)	-12	i	0.92	-14	81	102	-1.4
C(=N\Nc1ccc2nncn2n1)/c1ccco1	nt	i	0.95	nt	nt	95	nt
O=C(CSc1nnc(SCc2ccc(Cl)cc2)s1)N1CCN(C(=O)c2ccco2)CC1	-12	i	1.1	nt	nt	96	-1.0
COc1ccc2nc(SCC(=O)c3ccco3)[nH]c2c1	-2	i	0.93	9	191	107	0.1

More results.
SMILES	PKD1 inh	HSV replic up	HSV replic up primary fold	INS promoter inh	INS promoter inh cell count	RGS16-Gao	GALR2 agonist
CCN(CC)S(=O)(=O)c1ccc2c(c1)nc(SCn1nnc3ccccc3c1=O)n2CC	2	i	0.76	-2	146	93	-1.3
COc1ccc(CC(=O)OCC(=O)Nc2ccc(Cl)cn2)cc1	-6	i	0.87	-41	100	101	-4.2
Cc1ccc(-c2cc(C(=O)Nc3nn[nH]n3)c3ccccc3n2)c(C)c1	-8	nt	nt	-4	107	98	-2.4
COc1ccc(OC)c(S(=O)(=O)NCc2cccnc2)c1	-10	i	0.9	10	47	121	0.4
CC/C(=N\NC(=O)c1ccc(Br)cc1)c1ccccc1	-4	i	1	-60	142	102	nt
Cc1ccc(C(=O)Nc2ccc3c(c2)CCC3)o1	2	i	0.44	16	81	56	-1.9

Source: PubChem BioAssay
